GCN5L2 inh = inhibitors of human GCN5L2 histone acetyltransferase | GCN5L2 HAT assay, ThioGlo1 CoA-SH fluorescence | Potency, µM (highest dose often 58.9 µM), without a hit: at the top dose activity change, negative = inhibition, hits mostly inhibitors | 390,000 tested, 0.21% active | AID 504327; active = well fitted inhibition curve with a large enough effect; inconclusive = small, poorly fitted or top-dose-only effect, or another doubt; inactive = no such curve, though single readings can be large or run the other way
Target sequence (Q92830 whole entry, looked up): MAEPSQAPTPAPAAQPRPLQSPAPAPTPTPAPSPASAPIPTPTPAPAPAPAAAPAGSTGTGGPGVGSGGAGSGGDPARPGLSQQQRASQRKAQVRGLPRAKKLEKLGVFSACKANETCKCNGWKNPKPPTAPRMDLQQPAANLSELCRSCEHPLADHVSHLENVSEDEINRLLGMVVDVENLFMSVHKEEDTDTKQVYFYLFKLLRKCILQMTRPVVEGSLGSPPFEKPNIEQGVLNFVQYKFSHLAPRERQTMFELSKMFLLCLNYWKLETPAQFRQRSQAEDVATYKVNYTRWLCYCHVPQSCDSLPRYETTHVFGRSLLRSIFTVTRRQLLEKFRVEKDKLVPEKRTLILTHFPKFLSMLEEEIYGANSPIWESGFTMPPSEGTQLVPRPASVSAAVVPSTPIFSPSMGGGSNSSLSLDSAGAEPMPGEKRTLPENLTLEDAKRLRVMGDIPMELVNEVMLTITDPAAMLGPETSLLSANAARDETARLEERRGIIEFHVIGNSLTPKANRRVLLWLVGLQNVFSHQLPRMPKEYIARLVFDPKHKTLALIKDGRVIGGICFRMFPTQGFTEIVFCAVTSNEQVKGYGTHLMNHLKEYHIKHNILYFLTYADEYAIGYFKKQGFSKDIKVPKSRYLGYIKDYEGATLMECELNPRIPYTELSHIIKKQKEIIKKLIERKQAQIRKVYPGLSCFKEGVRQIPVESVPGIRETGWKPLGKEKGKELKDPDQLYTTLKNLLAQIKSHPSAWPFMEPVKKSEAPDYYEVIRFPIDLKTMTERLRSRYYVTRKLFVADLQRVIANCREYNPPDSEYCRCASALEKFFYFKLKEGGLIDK
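Preincubate 20nM GCN5L2 with compound 15 min, RT → add 50uM ThioGlo1 + 75uM H3(1-25) + 70uM acetyl-CoA → read fluorescence 0 and 20 min. Primary qHTS; fluorescent artifacts likely.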
An asterisk follows results filed as active; ? = inconclusive; & = joins results of further samples; [ ] = remark or other dose. % is scaled to controls: 0 for no effect and ±100 for the full control effect; potency is read from the fitted curve at half-maximal effect.

Molecule	GCN5L2 inh
CCOC(=O)C1CCN(C(=O)CN2C(=O)C(CC)Oc3ccccc32)CC1 (centres undefined)	2%
O=C(COc1ccc2ccccc2c1)Nc1ccc(S(=O)(=O)N2CCCCCC2)cc1	-2%
Cc1ccc(NC(=O)CN(C)C(=O)c2nn(C)c(=O)c3ccccc23)cc1	1%
O=C(Nc1ccc(S(=O)(=O)N2CCOCC2)cc1)c1ccc2c(c1)OCO2	-7%
CCOC(=O)c1sc(NC(=O)CCN2CCOCC2)c(C(=O)OCC)c1C	1%
O=[N+]([O-])c1ccc(N2CCOCC2)cc1SCc1ccco1	-2%
O=C(/C=C/c1ccc(-c2ccccc2[N+](=O)[O-])o1)c1ccc(F)cc1	-6%
Cc1cccc(N2CCN(CCCNC(=O)c3ccc(NC(=O)C4=CSCCO4)cc3)CC2C)c1 (centres undefined)	-21%
CC1CCN(C(=O)CSc2nc3c(c(=O)n2C)SCC3)CC1	-9%
CCN(CC)CCNC(=O)Cn1cnc2sc(C)c(S(=O)(=O)N3CC(C)CC(C)C3)c2c1=O (centres undefined)	-1%
Cc1ccc(C(=O)Oc2cc(N)n(S(=O)(=O)c3ccc(F)cc3)n2)cc1	-6%
COc1ccc(-n2nc(C(=O)NCC(=O)N3CCC(C)CC3)c3ccccc3c2=O)c(OC)c1	1%
C/C(=C\c1ccccc1)C(=O)NC1CCSC1=O (centres undefined)	-11%
CCc1nc(SCc2cc(Cl)ccc2OC)n[nH]1	-9%
O=C1Nc2ccc([N+](=O)[O-])cc2C1(O)N1CCCCC1 (centres undefined)	-10%
O=S(=O)(c1cccs1)n1cccn1	-1%
CCN(CC1CCCO1)C(=O)CCc1nnc(CCc2ccccc2OC)o1 (centres undefined)	-2%
O=C1NCCCN1Cc1ccc(F)cc1	-6%
NNC(=O)c1ccccc1OCCOc1ccccc1	-1%
COc1ccc(C2C=C(c3ccc(F)cc3)NC(=S)N2)cc1OC (centres undefined)	-3%

Following part:
Molecule	GCN5L2 inh
Cc1cc(C(=O)NNS(=O)(=O)c2cccc(Cl)c2)nn1C(C)(C)C	-1%
COc1cc(OC)c(OC)cc1CN1CCN(C(=O)c2cccc3ccccc23)CC1	-14%
CC1CN(C(=O)c2ccc3c(c2)OCO3)OC(c2ccccc2)O1 (centres undefined)	-13%
COc1ccnc(Oc2ccc(F)cc2)c1C(=O)N/C=N/OCc1ccccc1	-9%
Cc1cccc(C(=O)Nc2nnc(S(=O)(=O)N3c4ccccc4CC3C)s2)c1 (centres undefined)	-3%
N#C/C(=C\c1cccnc1)c1nc2c(s1)CCCC2	-13%
CC(C)c1ccc(S(=O)(=O)N2CCN(C(=O)c3cccc(F)c3)CC2)cc1	-19%
COc1cccc(N2CCN(C(=O)c3nc4nc(C)cc(C)n4n3)CC2)c1	2%
COc1cc2c(cc1OC)CN(C(=O)Cc1ccc(OC)c(S(=O)(=O)N3CCOCC3)c1)CC2	0%
N#Cc1cccc(NC(=O)Cc2ccsc2)c1	-16%
CCC(OC(=O)CN1C(=O)C(=O)c2ccccc21)C(=O)Nc1ccccc1OC (centres undefined)	-7%
O=C(COc1ccc(F)cc1)Nc1ccc2nc(SCCOc3ccccc3)sc2c1	-6%
CCCCn1c(NCCO)nc2ccccc21	-2%
CCCC[n+]1ccn(-c2nc3ccccc3nc2[N-]S(=O)(=O)c2ccc(C)cc2)c1	-6%
O=c1nc2ccccc2c2n1CC(CN1CCN(C(c3ccccc3)c3ccccc3)CC1)N2 (centres undefined)	-6%
CN(C)S(=O)(=O)c1cccc(NC(=O)COC(=O)[C@H](Cc2ccccc2)NC(=O)c2ccco2)c1	-5%
CCN(CC)c1c(-c2ccccc2)c2cc(C)ccc2[nH]c1=O	-2%
Cc1cccc(OCC(=O)NCC(=O)N/N=C/c2cccs2)c1	-2%
CCOC(=O)c1nn(-c2ccc(Cl)cc2)c2nc(-c3ccc(C)cc3)c(C#N)c(=O)n12	3%
CC(Sc1nccn1C)C(=O)Nc1ccc(Cl)cn1 (centres undefined)	-5%

Following part.
Molecule	GCN5L2 inh
O=C1C=C(NCc2ccco2)CCC1	-2%
Cc1ccccc1NC(=O)c1ccc(F)c(S(=O)(=O)N2CCN(c3ccccc3F)CC2)c1	-10%
Cc1sc2ncn(C(C)C(=O)OC3CCCCC3)c(=O)c2c1C (centres undefined)	-2%
CS(=O)(=O)N(CC(=O)N1CCN(Cc2ccc3c(c2)OCO3)CC1)C1CCCCC1	0%
CCOC(=O)C1=C(O)C(=O)N(c2ccc(S(N)(=O)=O)cc2)C1c1ccccc1 (centres undefined)	2%
CCN(CC)CCNC(=O)C1CCN(S(=O)(=O)c2c(C)noc2/C=C/c2ccccc2F)CC1	4%&1%
Cc1cn(C2C=CC(CO)O2)c(=O)[nH]c1=O (centres undefined)	-2%
CC(NC(=O)C(C(=O)c1cccc([N+](=O)[O-])c1)n1cc(Cl)ccc1=O)c1ccccc1 (centres undefined)	1%
O=C(COC(=O)c1c2c(nc3ccccc13)CCCC2)Nc1ccc2c(c1)OCO2	-7%
CCN(C(=O)Nc1ccccc1OC)c1c(N)n(Cc2ccccc2)c(=O)[nH]c1=O	6%
COc1ccc(NC(=O)CCCn2c(=O)c3cccn3c3cccnc32)cc1Cl	-1%
COCCCNC(=O)C1CCN(Cc2cc3ccccc3n2Cc2cccc(Cl)c2)CC1	-4%
COc1ccc(S(=O)(=O)N2CCCCC2)cc1NC(=O)c1ccco1	5%
CCCCN(C)CCCNC(=O)Cn1c(=O)sc2ccccc21	-2%
Cc1ccc(C)c(NC(=O)COC(=O)c2cccc3c2C(=O)c2ccccc2C3=O)c1	-5%
CC(=O)Nc1cc2nc(C)n(Cc3ccc([N+](=O)[O-])cc3)c2nc1C	0%
CC1CCCN(S(=O)(=O)c2ccc(CN3C(=O)c4cccnc4C3=O)cc2)C1 (centres undefined)	0%
O=C(CCN1C(=O)COc2ccccc21)NCCCN1CCN(c2ccc(F)cc2)CC1	3%
CCOC(=O)c1[nH]c(C)c(CCC(=O)Nc2ccc(C(C)=O)cc2)c1C	-9%
COc1ccccc1-c1nnc(SCC(=O)N2CCC(C)CC2)o1	-2%

Of the compounds above, these have a Cl atom.
Molecule	GCN5L2 inh
CCc1nc(SCc2cc(Cl)ccc2OC)n[nH]1	-9%
Cc1cc(C(=O)NNS(=O)(=O)c2cccc(Cl)c2)nn1C(C)(C)C	-1%
CCOC(=O)c1nn(-c2ccc(Cl)cc2)c2nc(-c3ccc(C)cc3)c(C#N)c(=O)n12	3%
CC(Sc1nccn1C)C(=O)Nc1ccc(Cl)cn1 (centres undefined)	-5%
CC(NC(=O)C(C(=O)c1cccc([N+](=O)[O-])c1)n1cc(Cl)ccc1=O)c1ccccc1 (centres undefined)	1%
COc1ccc(NC(=O)CCCn2c(=O)c3cccn3c3cccnc32)cc1Cl	-1%
COCCCNC(=O)C1CCN(Cc2cc3ccccc3n2Cc2cccc(Cl)c2)CC1	-4%

Continuation.
Molecule	GCN5L2 inh
Cc1cc(C(=O)OCC(=O)NC2(C#N)CCCCC2)c(C)o1	-9%
Cc1ccc(C)c(-c2cc(C(=O)NC3CC3)c3ccccc3n2)c1	-4%
COc1ccc(Br)cc1CNC(=O)C1CCN(C(=O)N(C)C)CC1	-5%
Cc1ccc2nc(SCC(=O)NCc3cccs3)[nH]c2c1	-13%
CCOc1ccccc1NC(=O)C1CCN(S(=O)(=O)c2cccs2)CC1	-2%
CCNc1c(NC(=O)c2ccc3c(c2)OCO3)c(=O)oc2ccccc12	?
CCOC(=O)Cc1nnc(NC(=O)c2ncn[nH]2)s1	-1%
CCCn1c(N)c(N(CCOC)C(=O)c2cc(C)cc(C)c2)c(=O)[nH]c1=O	-1%
CC(C)(C)NC(=O)C(c1ccc(F)cc1)N(CC1CCCO1)C(=O)CCC(=O)Nc1ccccn1 (centres undefined)	-2%
CCC(C(=O)NCc1ccc(OC)cc1)n1nc(C)n2c(cc3occc32)c1=O (centres undefined)	-11%
CCCNC(=O)COc1ccc(S(=O)(=O)Nc2ccc(C)cc2)cc1	-4%
NC1=NS(=O)(=O)NC1c1cccc(F)c1 (centres undefined)	-3%
COC(=O)CN(c1ccc(OC)cc1)S(=O)(=O)c1c(C)noc1C	2%
O=C(COC(=O)c1ccccc1Nc1ccc(SC(F)F)cc1)NC1CC1	-7%
O=S(=O)(Nc1ccc(O)c(Sc2nc3ccccc3s2)c1)c1cccc2ccccc12	-11%
Cc1ccc(C(=O)NCC(=O)OCC(=O)NC2CCS(=O)(=O)C2)cc1C (centres undefined)	-4%
COc1ccc(N(CC(=O)N2CCN(c3ccccc3)CC2)S(=O)(=O)c2ccc(C)cc2)cc1	?
CCCN(CC(=O)Nc1ccccc1C)C(=O)c1ccc(C(=O)c2ccccc2)cc1	0%
CC(C(=O)Nc1cccnc1)c1ccc([N+](=O)[O-])cc1 (centres undefined)	-4%
COc1ccc(Br)cc1S(=O)(=O)N1CC(C)OC(C)C1 (centres undefined)	2%

Further entries
Molecule	GCN5L2 inh
O=C(NC1=NCCS1)c1csc2ccccc12	-3%
CCCOc1ccc2nc(NC(=O)OC)sc2c1	23%
O=C(N1CCOCC1)N1CCN(Cc2ccccc2)CC1	0%
CCc1ccc(NC(=O)c2noc3c2CCC3)cc1	-22%
CSc1ccc(CNc2ccc(C)c(C)c2)cc1	-4%
O=C(OCC(=O)N1CCC(Cc2ccccc2)CC1)c1ccc(CO)cc1	-6%
Cc1ccc(CN2CCC(CNC(=O)Nc3ccc(C)c(C)c3)C2)cc1 (centres undefined)	0%
CCOC(=O)COc1ccc(S(=O)(=O)N2CCN(c3ccc(OC)cc3)CC2)cc1	1%
O=C(Nc1ccc(Oc2ccc3c(c2)C(=O)N(c2ccc(O)cc2)C3=O)cc1)c1cccs1	-2%
Cc1ccc(C2C3C(=O)N(c4ccccc4)C(=O)C3N3CCCN23)cc1 (centres undefined)	-3%
CCOP(=O)(OCC)C(Nc1ccc(C)cc1)c1ccco1 (centres undefined)	-2%
COc1cc2[nH]c(=O)n(Cc3ccc(C(=O)NCC4CCCO4)cc3)c(=O)c2cc1OC (centres undefined)	-4%
COc1ccc(-c2nc(CS(=O)CC(=O)NCCc3ccc(C)cc3)c(C)o2)cc1OC (centres undefined)	0%
COc1ccc(C)cc1NC(=O)c1cccc(C(=O)Nc2cc(C)ccc2OC)n1	1%
O=C(COC(=O)c1nc(-c2ccccc2)n(-c2cccc(C(F)(F)F)c2)n1)NCc1cccs1	-3%
CS(=O)(=O)NCCCNc1ccc(C(F)(F)F)cc1[N+](=O)[O-]	-3%
CC(=O)c1ccc(NC(=S)Nc2ccc(N3CCOCC3)cc2)cc1	-19%
CC(C)N(C(=O)c1ccc2nc(-c3ccccc3)c(-c3ccccc3)nc2c1)C(C)C	-12%
COc1ccc(C(=O)N2CCN(c3ncccn3)CC2)cc1S(=O)(=O)N1CCOCC1	-11%
Cc1ccc(C)c(NC(=O)NNS(=O)(=O)c2ccc(C)c(C)c2)c1	0%

Going on with the list.
Molecule	GCN5L2 inh
COc1ccc(CC(=O)NCC2(N3CCCCC3)CCCCC2)cc1	-4%
O=C(N/N=C/c1ccc(Sc2ccccn2)o1)c1cccc([N+](=O)[O-])c1	-4%
COc1cc(NC(=O)CCc2nnc3ccc(N4CCN(C)CC4)nn23)cc(OC)c1	-19%
CC(C)CCNC(=O)C(=O)NC1CCCC1	2%
C=CCSC[C@@H]1Nc2cc(Cl)c(S(N)(=O)=O)cc2S(=O)(=O)N1	5%[21.4 µM]
CCOC(=O)N1CCN(C(=O)c2ccccc2CCc2ccccc2)CC1	-8%
COC(=O)c1sc2nc(SCc3ccccc3C#N)n(N)c(=O)c2c1C	1%
O=S1(=O)C=C(Oc2ccc(F)cc2)c2ccccc21	7%
CCc1ccc(C2NC(c3ccc(CC)cc3)C([N+](=O)[O-])C(C)(C)C2[N+](=O)[O-])cc1 (centres undefined)	-11%
Cc1ccccc1C([O-])=Nc1ccc[n+](-c2nc3ccccc3nc2NS(=O)(=O)c2ccccc2)c1	-9%
COCCN(C(=O)CCC(=O)Nc1ccccn1)C(C(=O)NC(C)C)c1ccc(C)cc1 (centres undefined)	-2%
Cc1cc(C)cc(N(CC(=O)NCCSCc2ccco2)S(C)(=O)=O)c1	0%
O=C(CCS(=O)(=O)Cc1ccccc1)Nc1ncc([N+](=O)[O-])s1	-3%
CN(C1CCCCC1)S(=O)(=O)c1ccccc1	-17%
Cn1c(=O)c2c(ncn2CC(=O)N/N=C/C=C\c2ccccc2[N+](=O)[O-])n(C)c1=O	-3%
O=C(NCc1ccccc1)c1nc(-c2ccc(Cl)cc2)n2c1CCCCC2	-19%
CN1C(=O)CC(N2CCC(c3nc4ccccc4[nH]3)CC2)C1=O (centres undefined)	3%
CCOc1cccc2cc(-c3nnc(Nc4ccc(F)c(Cl)c4)s3)c(=O)oc12	-7%
O=C(NCc1ccco1)/C(=C/C=C/c1ccccc1)NC(=O)c1ccco1	-6%
O=C(NCc1ccccn1)c1ccc(OC2CCN(Cc3cccs3)CC2)cc1	-4%

Later entries.
Molecule	GCN5L2 inh
COc1ccc(NC(=S)N2CCC(N(C)CC3CCCO3)CC2)cc1Cl (centres undefined)	0%
CC(C)(C)c1ccc(C2=NC(C)(C)N(CC(=O)Nc3ccc(F)c(F)c3)C2=O)cc1	-8%
CCOc1ccccc1/C=N/NC(=O)CNC(=O)c1cccs1	-4%
COC(=O)Nc1nc(-c2ccc(F)cc2)c(C)s1	-3%

The list is partial, and most or all hits are left out here.
